Screening results (PubChem BioAssay)
CapD inh: inhibitors of Bacillus anthracis CapD enzyme; purified CapD enzyme, fluorescence intensity read-out; hits give low values; some hits fall short of the stated cut; z-score (concentration not given with the values); 0.23% of 140,000 active;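 active = z-score under -4 in either of two replicates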;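 note: stock transfer was 100 nL into about 40 µL; score is relative to mean and spread of the plate; one replicate is shown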
AID504770: growth inhibitors of E. coli YBA685 in a screen for V. cholerae RctB (chromosome II replication) inhibitors. AID 504770. 0.27% of 130,000 active. z-score (concentration not given with the values). E. coli YBA685 rctB-dependent plasmid, OD600 growth, 3 h; hits give low values;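 active = z-score under -2 on both plates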;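 note: wells of about 30 µL received 100 nL stock; score is relative to mean and SD of the test wells; the first replicate is given; strong numbers were not always called active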
* hit, by the source's call; & = joins results of further samples. The order is random; overall some 0.41% were active at least once.

COc1ccc(S(=O)(=O)CCc2nc3ccccc3n2CC(=O)O)cc1 was read as AID504770 0.6.
`Clc1ccc2c(c1)C(N1CCNCC1)=Nc1ccccc1O2` gave CapD inh -0.69&0.12.
Cc1cc(C(=O)CSc2nnc3ccccn23)c(C)n1-c1ccccc1 was read as CapD inh 0.04 and AID504770 0.35.
Screening CCOC(=O)N/N=C/c1ccccc1Cl returned CapD inh -0.62.
`Cc1cc(NC(=O)c2ccc3nc(N4CCOCC4)sc3c2)ccc1Br` gave CapD inh 1.7 and AID504770 -0.4.
CCOc1ccccc1N1COc2ccc3c(C)cc(=O)oc3c2C1 was read as CapD inh 35.
Screening C/C(=C/C(=O)C(F)(F)F)N1CCC(C(N)=O)CC1 returned AID504770 -0.05.
Screening C=CCN(CC=C)C(=S)Nc1ccc(S(N)(=O)=O)cc1 returned CapD inh 0.025 and AID504770 -1.1.
For COc1ccccc1Nc1cc(N2CCCCCC2)c2nonc2c1[N+](=O)[O-] the results were CapD inh 0.75.
`CN(CC(=O)Nc1cccc(F)c1)CC(=O)N1CCN(C(=O)c2ccco2)CC1` gave AID504770 0.

Gathered by group, the compounds so far containing nitrogen in an aromatic ring.
COc1ccc(S(=O)(=O)CCc2nc3ccccc3n2CC(=O)O)cc1 was read as AID504770 0.6.
Cc1cc(C(=O)CSc2nnc3ccccn23)c(C)n1-c1ccccc1 was read as CapD inh 0.04 and AID504770 0.35.
`Cc1cc(NC(=O)c2ccc3nc(N4CCOCC4)sc3c2)ccc1Br` gave CapD inh 1.7 and AID504770 -0.4.
For COc1ccccc1Nc1cc(N2CCCCCC2)c2nonc2c1[N+](=O)[O-] the results were CapD inh 0.75.

Following part
For CCOc1ccc(NC(=O)N(CCC(C)C)C(C)c2cccs2)cc1 (centres undefined) the results were CapD inh -4 and AID504770 2.
COc1ccc(C(CC(=O)Nc2ccc3c(c2)OCO3)N2Cc3ccccc3C2=O)cc1 (centres undefined) was read as CapD inh -0.11 and AID504770 -0.25.
For COC(=O)c1cnn2c(C(F)(F)F)cc(C(F)(F)F)nc12 the results were CapD inh -0.13 and AID504770 1.3.
Screening Cc1csc(C(=O)NNC(=O)C(NC(=O)Cc2c[nH]c3ccccc23)C(C)C)c1Cl (centres undefined) returned CapD inh -0.37.
CCOC(=O)c1c(C)oc2nc(C)nc(N3CCc4ccccc43)c12 was read as CapD inh 3.1 and AID504770 0.9.
COC(=O)c1sccc1N/C=C(\C#N)S(C)(=O)=O was read as CapD inh 0.08 and AID504770 -1.2.
Screening CC(=O)Nc1ccc(Cl)cn1 returned AID504770 -0.15.
`COc1ccc(/C=C2\C(=O)NC(=O)N(C)C2=O)cc1` gave CapD inh 0.42 and AID504770 -0.6.
`CC1(c2ccc3c(c2)OCCO3)NC(=O)N(CN2CC=C(c3ccccc3)CC2)C1=O` (centres undefined) gave AID504770 -0.5.
For COc1ccccc1C1CCN(C(=O)c2cccnc2Sc2ccc(C)cc2)CC1 the results were CapD inh 0.26 and AID504770 0.3.
Screening Cc1ccccc1C1(c2ccccc2C)SC2(SC(C(=O)c3ccccc3)=NN2c2ccccc2)c2ccccc21 (centres undefined) returned CapD inh 0.16.
Screening O=C(Oc1ccc(Oc2ncc(Cl)cc2Cl)cc1)c1ccco1 returned CapD inh -0.53 and AID504770 -1.1.
CCCN(C(=O)[C@H]1[C@@H]2C[C@@H]3[C@H]1C(=O)O[C@@H]3C2)c1ccccc1OCC was read as CapD inh -0.86 and AID504770 -0.55.
Screening CCOP(=O)(OCC)C(NC(=O)c1ccc(OC)cc1)C(Cl)(Cl)Cl (centres undefined) returned CapD inh -0.96.
For CN(Cc1ccco1)S(=O)(=O)c1ccc2[nH]cc(C(=O)O)c(=O)c2c1 the results were CapD inh 0.17 and AID504770 0.8.
O=C(N/N=C1/C(=O)c2cccc3cccc1c23)c1ccncc1 was read as AID504770 0.3.
Screening O=S(=O)(Cc1ccc(Cl)cc1)N1CCCC1 returned CapD inh -0.31 and AID504770 -0.35.
CN(CC(=O)NC1CCCC1)Cc1ccc(Cl)s1 was read as AID504770 -0.85.
For CC1Cc2ccccc2N1CC(=O)NC(=O)NC1CCCCC1 (centres undefined) the results were AID504770 -0.25.
`CCOC(=O)c1cccnc1SCC(=O)Nc1ccc(C)cc1` gave CapD inh 0.23 and AID504770 -0.4.

Reprinted from above, two compounds:
For CC1Cc2ccccc2N1CC(=O)NC(=O)NC1CCCCC1 (centres undefined) the results were AID504770 -0.25.
`CCOC(=O)c1cccnc1SCC(=O)Nc1ccc(C)cc1` gave CapD inh 0.23 and AID504770 -0.4.

The listing continues.
`CCN=c1scc(-c2ccc(Br)s2)n1N=C1CCCCC1` gave AID504770 -0.75.
For COc1ccc2[nH]cc(CCNC(=O)OCCc3ccccc3C)c2c1 the results were CapD inh -0.22.
`Cc1cccc(COC(=O)NCCc2c[nH]c3ccc(O)cc23)n1` gave CapD inh 0.58.
Screening O=C(NCCCN1CCCCCC1)c1ccc2c(Cl)c3c(nc2c1)CCCC3 returned CapD inh -0.41 and AID504770 -0.5.
For C=CCN1C(=O)/C(=c2\sc3nc(-c4ccccc4OC(C)=O)nn3c2=O)c2ccccc21 the results were CapD inh -0.22.
For NC(=O)Cc1c[nH]c2ccccc12 the results were AID504770 1.8.
`CC1CCN(C(=O)COC(=O)/C=C/c2ccccc2Cl)CC1` gave CapD inh -0.19 and AID504770 0.4.
Screening COC(=O)c1cc(N2CCNCC2)nc2ccccc12 returned CapD inh 9.9 and AID504770 -0.3.
Screening CCCN(CC1CC1)C(=O)CSc1nc2ccccc2c(=O)n1CCC returned AID504770 1.2.
For c1ccc2c(c1)ncn2CN1CCCCC1 the results were CapD inh -0.42.
Screening CC1CCN(c2nc3ccccn3c(=O)c2/C=C2/SC(=S)N(C3CCCCC3)C2=O)CC1 returned CapD inh -0.07.
CCC(=O)N(c1nnc(SCC(=O)c2ccc(CC(N)=O)s2)s1)C1CC1 was read as AID504770 -0.1.
CCCOc1c(Br)cc(C(=O)O)cc1OC was read as CapD inh 0.03 and AID504770 -0.15.
For COc1ccc(C2CC(=O)C3=C(C2)Nc2ccccc2N(C(=O)C(F)(F)F)C3c2ccc(OC)c(OC)c2)cc1 (centres undefined) the results were CapD inh 0.28.
For CCOC(=O)Cc1csc(SCC(=O)NC)n1 the results were AID504770 0.15.
`COC(=O)c1ccccc1NC(=O)CSc1nnc(-c2cc3cccc(OC)c3o2)n1C` gave CapD inh -0.49 and AID504770 1.6.
`O=C(/C=C/c1cc2c(cc1Br)OCO2)Oc1cccc(Cl)c1` gave CapD inh 2.4.
For O=C(CC(NCc1ccco1)C(=O)O)Nc1ccccc1 (centres undefined) the results were CapD inh 0.035 and AID504770 -0.95.
Screening CCc1ccc(NC(=O)CSc2nc3ccccc3c(=O)n2CCCC(=O)N2CCCC2)cc1 returned CapD inh 1.1 and AID504770 -0.25.
CCOC(=O)c1ccc(NC(=O)CSC2=NC(=O)C(CC)C(=O)N2)cc1 (centres undefined) was read as CapD inh -1.2 and AID504770 -0.2.
For Cc1cc(Nc2cccc(C(F)(F)F)c2)nc2ccc(NC(=O)c3ccc(Br)o3)cc12 the results were CapD inh 3.9 and AID504770 -0.05.
O=C(Nc1ccc(Cl)cc1)c1cc(-c2cccs2)on1 was read as CapD inh 2.1 and AID504770 -0.55.
Screening COCCCCOC(=O)N1CCN(c2ccccc2C)CC1 returned CapD inh -0.28.
C#CCOC(=O)NCCC(=O)c1ccc(F)cc1 was read as CapD inh -0.015.
For Cc1sc(-c2ccccc2)nc1CC(=O)NN the results were CapD inh 1.8 and AID504770 0.15.
For Cc1cccc(CO/N=C/c2c(-c3ccc(Cl)cc3)nc3c(C)cccn23)c1 the results were CapD inh 19.
For Nc1ccccc1NCCc1ccccc1 the results were CapD inh -0.81 and AID504770 0.05.
`NC(=O)c1ccc(C(F)(F)F)o1` gave CapD inh -0.24 and AID504770 0.45.
For CC(C#N)Sc1nnc(-c2ccco2)n1C1CCCCC1 (centres undefined) the results were AID504770 0.4.
Screening O=C(c1ccc([N+](=O)[O-])cc1)N1N=C(c2ccccc2)CC1(O)C(F)(F)F (centres undefined) returned CapD inh 0.23.
For CC(=O)Nc1ccccc1C#N the results were AID504770 -0.95.
Screening C/C=C(/C(=O)O)c1ccccc1 returned CapD inh 0.2 and AID504770 -0.05.
Screening O=C(NCCCn1ccnc1)N1CCN(C/C=C/c2ccccc2)CC1 returned CapD inh 0.12.
Screening CCCCN(Cc1ccccc1)C(=O)C1CCN(Cc2cccc(O)c2)CC1 returned CapD inh 0.33 and AID504770 -0.4.
Screening O=C(NC1CCCC1OCc1ccccc1)OCCc1ccccc1Cl (centres undefined) returned CapD inh 0.18.
Cc1ccc(O)c(C(=O)/C=C(\N)C(F)(F)F)c1 was read as CapD inh 0.055 and AID504770 -0.1.
NC(=S)N1N=C(c2ccc(Cl)cc2)CC1c1ccco1 (centres undefined) was read as AID504770 1.2.
`Cc1ccc2c(c1)-c1c(ssc1=S)C(C)(C)N2C(=O)C(C)N1C(=O)c2ccccc2C1=O` (centres undefined) gave CapD inh -0.17.
CC(C)Cn1c(Cc2ccccc2)nc2ccccc21 was read as AID504770 1.4.
`CCOc1ccccc1C(=O)NCc1ccc(OC)c(C(=O)OC)c1` gave AID504770 -0.35.
CSc1nnc(CCNC(=O)N(c2ccccc2)c2ccccc2)n1C was read as AID504770 -0.7.
`CC(=O)NC(=O)c1cc2cc(Br)ccc2oc1=Nc1cccc2ccccc12` gave CapD inh -0.29.
For O=C(c1ccccc1)c1cc(Cl)ccc1NC(=S)Nc1ccc(F)cc1 the results were CapD inh 0.35.
For Cc1ccc(C2=NN(CCC(=O)N3CCC(C(N)=O)CC3)C(=O)CC2)cc1 the results were CapD inh -0.32 and AID504770 -0.55.
`CC(=O)C1=NN(c2ccccc2Cl)C2(S1)c1ccccc1C(c1ccc(Br)cc1)=NN2c1ccccc1` (centres undefined) gave CapD inh -0.52.
For CC1CCCC(C)N1C(=O)CSc1nnc(-c2ccccc2)o1 (centres undefined) the results were AID504770 1.1.
For O=C(COC(=O)c1sc2ccccc2c1Cl)Nc1ccccc1 the results were CapD inh 1.6 and AID504770 1.5.
Screening CC(C)Cn1c(=O)c2cc3c(=O)n(CC(C)C)c(=O)c3c(C(=O)c3ccc(Cl)cc3)c2c1=O returned CapD inh 16 and AID504770 0.4.
Cc1cc(C=NCCO)c(C)n1-c1cc(Cl)ccc1Cl was read as AID504770 0.
NC1=NC(=O)/C(=C\c2ccc(F)cc2)S1 was read as CapD inh 0.56 and AID504770 0.95.

Arranged by heavy-atom count (lowest first): part of the list above
NC1=NC(=O)/C(=C\c2ccc(F)cc2)S1 was read as CapD inh 0.56 and AID504770 0.95.
For O=C(COC(=O)c1sc2ccccc2c1Cl)Nc1ccccc1 the results were CapD inh 1.6 and AID504770 1.5.
For O=C(c1ccccc1)c1cc(Cl)ccc1NC(=S)Nc1ccc(F)cc1 the results were CapD inh 0.35.
For Cc1ccc(C2=NN(CCC(=O)N3CCC(C(N)=O)CC3)C(=O)CC2)cc1 the results were CapD inh -0.32 and AID504770 -0.55.
`CC(=O)NC(=O)c1cc2cc(Br)ccc2oc1=Nc1cccc2ccccc12` gave CapD inh -0.29.
Screening CC(C)Cn1c(=O)c2cc3c(=O)n(CC(C)C)c(=O)c3c(C(=O)c3ccc(Cl)cc3)c2c1=O returned CapD inh 16 and AID504770 0.4.
`CC(=O)C1=NN(c2ccccc2Cl)C2(S1)c1ccccc1C(c1ccc(Br)cc1)=NN2c1ccccc1` (centres undefined) gave CapD inh -0.52.

(continued)
O=C(Cc1ccccc1)NC1CCN(C(=O)c2cccs2)CC1 was read as CapD inh 0.52 and AID504770 -0.55.
O=C(O)/C=C/C(=O)Nc1ccc(N2CCOCC2)cc1 was read as CapD inh -0.62 and AID504770 2.5.
For Cc1cc(C)n(C(=O)c2cccc(S(=O)(=O)N3CCCC3)c2)n1 the results were CapD inh -0.055 and AID504770 -0.55.
COC(=O)c1ccsc1NC(=O)CS(=O)(=O)c1ccccc1 was read as AID504770 -0.75.
O=C(NCCN1CCOCC1)c1nn2c(C(F)(F)F)cc(-c3ccccc3)nc2c1Br was read as CapD inh -0.24.
O=C(N1CCCCC1)N1c2ccccc2C=Cc2ccccc21 was read as AID504770 -1.4.
For O=C(CSc1nnnn1-c1ccccc1)Nc1ccc(S(=O)(=O)Nc2nccs2)cc1 the results were CapD inh 0.04 and AID504770 0.15.
For CC1(C)Cc2ccccc2-c2nc(=O)[nH]c(=O)n21 the results were CapD inh 0.28.
`CN(C)c1ccc(C=NCCCN=Cc2ccc(N(C)C)cc2)cc1` gave CapD inh 0.05.
For Cc1nc(-c2ccc(NC(=O)c3ccc(C(F)(F)F)nc3C)cc2)cs1 the results were CapD inh 1.1 and AID504770 0.
Screening c1ccc(Oc2cccc(Oc3ccccc3)c2)cc1 returned CapD inh 0.43 and AID504770 0.1.
Screening CC(C)Cn1c(SCc2nnc(-c3ccccc3)o2)nnc1-c1ccccc1F returned AID504770 -0.25.
For O=c1oc2ccccc2n1Cc1ccccc1Cl the results were CapD inh -0.34 and AID504770 -0.65.
Screening CCOC(=O)c1nn(-c2ccccc2)c(=O)c2c(N)c(C#N)c(-c3ccco3)cc12 returned CapD inh 1.2 and AID504770 -0.2.
Screening CC(C)C1CC(CCN)(Cc2ccccc2)CCO1 (centres undefined) returned CapD inh 0.045 and AID504770 1.9.
O=C(c1cc2c(s1)-c1ccccc1SC2)N1CCCC1 was read as CapD inh 3.9 and AID504770 0.8.
Cc1nc2cc(-c3ccccc3)nn2c(C)c1CC(=O)O was read as CapD inh 8.1 and AID504770 -0.55.
For CCCN(CCC)S(=O)(=O)c1ccc(N)cc1 the results were CapD inh -0.005 and AID504770 -0.95.
`Cc1c(CC(=O)O)c(=O)oc2cc3oc4c(c3cc12)CCCC4` gave CapD inh 14 and AID504770 2.
COc1ccc(-c2c(N)n[nH]c2-c2ccccc2)cc1OC was read as CapD inh 11 and AID504770 -0.4.
Screening Cc1cc2occ(CC(=O)OCC(=O)Nc3sccc3C#N)c2cc1C returned AID504770 -0.15.
Screening CN(C)Cc1cc(C(C)(C)C)cc(C(C)(C)C)c1O returned CapD inh -0.7.
Screening O=C1/C(=C\c2cccnc2)SC(=S)N1C1CCS(=O)(=O)C1 (centres undefined) returned AID504770 -0.5.
